Screens as filed in PubChem BioAssay.
Resorufin autofl = compounds fluorescent in resorufin spectral region. Compound fluorescence, resorufin region 547/598 nm, buffer; active compounds read high. actives 0.04% (n = 59,000). max dye-equivalent concentration, M; active = above 10 nM dye equivalent; inconclusive = 1 to 10 nM; inactive = 1 nM or less; a few of its hits are not listed in these tables; also: highest value over a series up to 38 µM
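Dye-equivalent concentration values derive from comparing each well's 547/598 nm fluorescence against resorufin standards included on every plate. Incubation was 15 min at room temperature in 100 mM Tris, pH 8.0.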
TSHR agonist = TSH receptor (human) agonism; P16473; Potency, µM (titrated, usually from 57.1 µM), without a hit: top-dose activation, most hits filed as activators; HEK293-CNG-TSHR cells (CNG channel as cAMP sensor), membrane potential dye, cAMP; actives 0.48% (n = 73,000); active = well fitted activation curve of enough size with the parental cells flat; inconclusive = any curve in the parental cells; inactive = parental cells flat and receptor cells flat or falling; also: potency is read from the fitted curve at half-maximal effect; % of control where 0% means no effect; weak receptor curves with flat parental cells got no call and are not listed
Target sequence (P16473 whole entry, looked up): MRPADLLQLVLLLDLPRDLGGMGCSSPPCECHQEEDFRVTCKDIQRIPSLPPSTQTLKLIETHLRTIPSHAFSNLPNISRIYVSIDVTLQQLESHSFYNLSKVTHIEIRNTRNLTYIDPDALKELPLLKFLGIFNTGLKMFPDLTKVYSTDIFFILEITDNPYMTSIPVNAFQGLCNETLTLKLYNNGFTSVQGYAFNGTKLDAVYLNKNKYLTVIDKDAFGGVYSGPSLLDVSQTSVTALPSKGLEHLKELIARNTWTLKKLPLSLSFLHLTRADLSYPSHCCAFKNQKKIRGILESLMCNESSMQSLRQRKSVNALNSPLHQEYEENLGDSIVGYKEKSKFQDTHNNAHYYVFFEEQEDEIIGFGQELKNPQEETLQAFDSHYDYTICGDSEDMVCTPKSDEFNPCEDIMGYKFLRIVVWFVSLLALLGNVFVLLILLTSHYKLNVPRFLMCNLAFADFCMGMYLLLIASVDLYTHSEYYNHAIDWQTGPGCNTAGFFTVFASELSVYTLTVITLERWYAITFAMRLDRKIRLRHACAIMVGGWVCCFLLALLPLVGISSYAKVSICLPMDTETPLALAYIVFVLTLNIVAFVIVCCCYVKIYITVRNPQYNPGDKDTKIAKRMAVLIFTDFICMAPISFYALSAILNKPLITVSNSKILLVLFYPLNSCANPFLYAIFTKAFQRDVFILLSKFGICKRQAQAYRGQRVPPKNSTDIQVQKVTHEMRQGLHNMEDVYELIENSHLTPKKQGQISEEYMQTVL
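HEK 293 cells stably expressing TSHR and a cAMP-gated CNG channel; parental CNG-only cells as counterscreen. Cells preloaded 60 min with membrane potential dye plus 100 uM RO 20-1724, then compound 30 min; fluorescence read at 590 nm.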
A647 autofl = compound fluoresces in the A647 spectral region. Compound fluorescence, A647 channel (570/671 nm), Tris buffer. AID 592. 59,000 tested, under 10 active. max dye-equivalent concentration, M; active means above 1 µM dye equivalent; inconclusive means 0.1 to 1 µM; inactive means 0.1 µM or less;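 also: values scaled relative to a standard on each plate; highest value over a series up to 38 µM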
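Each compound's intrinsic fluorescence at 570 nm excitation and 671 nm emission is measured across its concentration series in 100 mM Tris, pH 8.0, after 15 min at room temperature, and reported relative to an A647 curve.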
AID923 = qHTS Assay for Allosteric/Competitive Inhibitors of Caspase-1: Spectroscopic Profiling in AFC Spectral Region. compound fluorescence, AFC spectral region (405/520 nm); almost no hit is shown here. Potency, µM (top dose mostly 57.5 µM), inactives show at the top dose fluorescence increase, hits mostly activators. actives 1.1% (n = 75,000). AID 923, 2007; active = well fitted activation curve with a large enough effect; inconclusive = small, poorly fitted or top-dose-only effect;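 also: potency is read from the fitted curve at half-maximal effect; 0% is about no effect; scaled to a free AFC standard on each plate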
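Baseline compound fluorescence (AFC region, 405 nm ex/520 nm em) taken from the intercept of kinetic reads with 50 nM caspase-1 and 5 uM Ac-WEHD-AFC; normalized to an on-plate AFC standard curve; compounds titrated up to 57 uM.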
A488 fluor = A488 region autofluorescence. compound autofluorescence, A488 spectral region, dye equivalency; active compounds read high. max dye equivalency, M. actives 0.1% (n = 59,000). AID 591; active = above 10 nM dye equivalent; inconclusive = 1 to 10 nM; inactive = 1 nM or less; about half of its hits are not listed in these tables;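 also: highest value over a series up to 38 µM; compound alone in buffer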
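Spectroscopic profiling in the A488 region: compounds in pH 8.0 Tris (100 mM), 15 min RT, CCD imaging with 480 nm excitation and 540 nm emission; responses normalized against A488 dye standards.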
* hit, by the source's call; i = inactive; ? = inconclusive; / = not tested or not shown; [ ] = dose if it differs, or a comment.

SMILES	Resorufin autofl	TSHR agonist	A647 autofl	AID923	A488 fluor
C[C@@H]1CC[C@@H]2C(=O)N3[C@@H](CC[C@@H](C)[C@@H]3c3ccc(-c4ccco4)cc3)C(=O)N2[C@H]1c1ccc(-c2ccco2)cc1	/	4%[11.4 µM]	/	-2.0%[11.5 µM]	/
Nc1ccc(-n2ccnc2)cc1	i	4%[11.4 µM]	3.6e-08	0.1%	i
O=C(c1ccco1)N1CCN(C2CC(=O)N(c3ccc4c(c3)OCO4)C2=O)CC1 (stereo not given)	i	-5%	1e-09	0.2%	i
COC(=O)C1CCN(C(=O)CCCOc2ccccc2)CC1	i	5%	1e-09	1.2%	i
COc1ccc(C2C(C(=O)Nc3ccc(F)cc3)=C(C)Nc3nc(CCCO)nn32)cc1 (stereo not given)	/	-5%	/	-2.3%	/
CCOC(=O)C(NCc1ccc2c(c1)OCO2)(NC(=O)CC)C(F)(F)F (stereo not given)	i	1%	1e-09	-1.1%	i
CCCCSc1c(C)c2cc3c(cc2[nH]c1=O)OCO3	i	8%	7.2e-09	-0.5%	i
Cc1nc2ccccc2c(=O)n1NC(=O)c1ccc(F)cc1Cl	i	2%	1e-09	0.5%	i
Cn1cccc1C(=O)OCC(=O)Nc1cc(C(C)(C)C)nn1-c1ccccc1	i	-13%	2.2e-09	2.2%	i
COC(=O)c1ccc(NC(=O)c2sc3nc(-c4ccccc4)cn3c2C)cc1	i	?	1.8e-09	3.1%	i
Cc1c([C@H]2[C@@H](CC#N)C2(C)C)c2ccccc2n1C	i	/	5.7e-08	/	i
Cc1nn(Cc2ccc(F)cc2)c(C)c1NC(=O)c1noc2c1CCCCC2	i	?	1e-09	-1.0%	i
CC(=O)NC1=NC(=O)/C(=C/N2CCCCC2)S1	i	-3%	6.3e-09	7.2%	i
Cc1cc(C)c(C)c(S(=O)(=O)Nc2ccccc2C(=O)NCCCn2ccnc2)c1C	i	11%	1e-09	-0.2%	i
Oc1ccc(C=NCC2COc3ccccc3O2)cc1 (stereo not given)	/	2%[11.4 µM]	/	-0.9%	/
COC(=O)NC(c1ccco1)[C@@]1(C(=O)OC)CCCC1=O (stereo not given in full)	/	-4%[11.4 µM]	/	2.4%[11.5 µM]	/
COc1ccccc1N1CCN(C(c2ccc(Cl)cc2)c2nnnn2C(C)(C)C)CC1 (stereo not given)	i	?	4.6e-08	1.4%	i
COc1cc(C2C3C(=O)N(Cc4ccccc4)C(=O)C3ON2c2ccccc2)cc(OC)c1OC (stereo not given)	i	/	2.5e-08	2.7%	i
Cn1cccc1Cc1nnc(SCC(=O)Nc2cccc(Cl)c2)n1-c1ccc(F)cc1	/	1%	/	-2.1%	/
O=C(O)c1cc2c([nH]c1=O)CCCC2	i	-6%	6e-08	-1.7%	i
COc1ccc(-n2c(=O)c(CCc3ccccc3)nc3cnc(N4CCOCC4)nc32)cc1	i	-5%	1e-09	6.2%	i
Cc1cccc2cc(CN(Cc3cccs3)C(c3nnnn3C3CCCC3)C(C)C)c(=O)[nH]c12 (stereo not given)	i	/	2.7e-08	-2.3%	i
CC(O)CCc1nc2ccc(C(=O)O)cc2[nH]1 (stereo not given)	i	-3%	3.5e-08	-0.9%	i
Cc1ccc(S(=O)(=O)N2CCCC(C(=O)O)C2)s1 (stereo not given)	/	-6%	/	0.8%	/
O=C(CSc1nnc(CN2CCOCC2)n1-c1ccccc1)Nc1ccc(Cl)cc1	i	?	1.4e-09	3.2%	i

2 records drawn at random from those above, as already listed:
SMILES	Resorufin autofl	TSHR agonist	A647 autofl	AID923	A488 fluor
O=C(c1ccco1)N1CCN(C2CC(=O)N(c3ccc4c(c3)OCO4)C2=O)CC1 (stereo not given)	i	-5%	1e-09	0.2%	i
Cn1cccc1C(=O)OCC(=O)Nc1cc(C(C)(C)C)nn1-c1ccccc1	i	-13%	2.2e-09	2.2%	i

The listing picks up; the 2 compounds before the break are reprinted first.
SMILES	Resorufin autofl	TSHR agonist	A647 autofl	AID923	A488 fluor
Cc1ccc(S(=O)(=O)N2CCCC(C(=O)O)C2)s1 (stereo not given)	/	-6%	/	0.8%	/
O=C(CSc1nnc(CN2CCOCC2)n1-c1ccccc1)Nc1ccc(Cl)cc1	i	?	1.4e-09	3.2%	i
CN(CC(=O)O)Cc1oc(CO)cc(=O)c1O	i	1%[11.4 µM]	1e-09	1.3%[11.5 µM]	i
COc1cc(-c2noc(CCCC(=O)NCc3ccco3)n2)cc(OC)c1OC	i	/	3.7e-09	-1.0%	i
COc1ccc2c(c1)sc1nc(-c3ccccc3)cn12	i	?	9.7e-09	0.2%	i
CC(=O)c1ccc(OCC(O)CN2CCN(Cc3ccc4c(c3)OCO4)CC2)cc1 (stereo not given)	/	9%	/	0.9%	/
CC(C)(C)NC(=O)CSc1n[nH]c(=O)n1-c1ccccc1	i	10%	1e-09	0.4%	i
Nc1cccc(O)c1	/	-12%	/	-0.1%	/
Cc1ccc2nc(Nc3nc(C)cc(C(F)(F)F)n3)nc(C)c2c1	i	4%	1e-09	0.4%	i
COc1cc2cc(Oc3ccc4ccc(=O)oc4c3)c(=O)oc2cc1O	i	4%	9.4e-09	3.7%	i
CC(C)[C@H](NC(=O)Nc1cccc(C(F)(F)F)c1)C(=O)O	i	4%	2.4e-08	1.6%	i
O=S(=O)(c1ccccc1)N1CCC2(CCN(c3ccccc3)CC2)CC1	i	13%	1e-09	1.2%	i
CC(=O)c1ccc(N2C(=NC(=O)C(C)C)SC3CS(=O)(=O)CC32)cc1 (stereo not given)	i	-5%	3.3e-08	-1.9%	i
CN(Cc1ccccc1)Cc1c[nH]c2ccccc12	i	/	6.9e-08	/	i
COc1ccccc1NC(=O)c1ccc(C)s1	i	6%	7e-09	-1.7%	i
Cn1cc(Cl)c(-c2nc3ccccc3[nH]2)n1	i	1%	1e-09	4.5%	i
COc1ccc(OC)c(/C=N/c2oc(-c3ccco3)c(-c3ccco3)c2C#N)c1	i	-24%	1e-09	13%	i
C=CCN(C(=O)Nc1ccc(F)cc1)C1CC(=O)N(c2ccc(OC)cc2)C1=O (stereo not given)	i	8%	2.6e-08	-1.6%	i
CCC(=O)N1c2ccccc2-c2nnc(SC)nc2OC1c1ccc(N(C)C)cc1 (stereo not given)	/	-8%	/	-1.3%	/
COc1cccc(-c2ccc(=O)n(CC(=O)Nc3cc4c(cc3NC(C)=O)OCCO4)n2)c1	i	-3%	3.4e-08	1.0%	i
COc1ccc(C(=O)OCCN2C(=O)c3ccccc3C2=O)cc1	/	20%	/	-1.3%	/
O=C(Nc1ccc(F)cc1)C1CCN(c2nnnn2-c2ccccc2)CC1	i	-9%	1e-09	-0.9%	i
CCc1ccc(N2CC(C(=O)Nc3cc(C)ccc3F)CC2=O)cc1 (stereo not given)	/	23%[11.4 µM]	/	0.0%	/
Cc1c(NC(=O)C(C)Sc2nc3ccccc3c(=O)n2CCO)c(=O)n(-c2ccccc2)n1C (stereo not given)	i	2%	1.3e-08	-0.2%	i
COc1ccc(C2CC(=O)N3C(=C2C#N)SCC3(O)c2ccccc2)cc1 (stereo not given)	i	?	7.4e-09	5.2%	i
CS(=O)(=O)c1nc(-c2ccccc2)cc(C(F)(F)F)n1	i	14%	3.4e-09	-0.5%	i
Cc1cccc(N2CCN(C(=O)CCCn3c(=S)[nH]c4cc5c(cc4c3=O)OCO5)CC2)c1C	i	13%	1e-09	-1.0%	i

Profiles as entered above. Screens in order: Resorufin autofl, TSHR agonist, A647 autofl, AID923, A488 fluor
CC(=O)c1ccc(N2C(=NC(=O)C(C)C)SC3CS(=O)(=O)CC32)cc1 (stereo not given) is listed with i, -5%, 3.3e-08, -1.9%, i
O=S(=O)(c1ccccc1)N1CCC2(CCN(c3ccccc3)CC2)CC1 is listed with i, 13%, 1e-09, 1.2%, i
CS(=O)(=O)c1nc(-c2ccccc2)cc(C(F)(F)F)n1 is listed with i, 14%, 3.4e-09, -0.5%, i
CC(C)(C)NC(=O)CSc1n[nH]c(=O)n1-c1ccccc1 is listed with i, 10%, 1e-09, 0.4%, i

Going on with the list:
SMILES	Resorufin autofl	TSHR agonist	A647 autofl	AID923	A488 fluor
O=C(CN1C2=NCCN2c2ccccc21)c1ccco1	i	2%	2.5e-09	0.8%	i
CCN(CC)c1ccc(NC(=O)Nc2ccc(C(C)=O)cc2)cc1	i	-18%	3.2e-09	-2.2%	i
CCOC(=O)c1ccc(CNC(=O)c2cc(C(C)(C)C)oc2C)o1	i	7%	3.9e-09	-1.6%	i
COCC(=O)Nc1nnc(COc2ccccc2)s1	i	-1%	1e-09	1.2%	i
C=CCOC(=O)C(C#N)c1nc2ccccc2nc1N1CCN(c2ccccc2OCC)CC1 (stereo not given)	i	/	1e-09	/	i
CC1CN(S(=O)(=O)c2ccc(C(=O)Nc3sc4c(c3C(N)=O)CCN(C)C4)cc2)CC(C)O1 (stereo not given)	/	?	/	4.3%	/
Cc1nc2cnc(N(C)C)nc2n(Cc2ccc(F)cc2)c1=O	i	?	2.9e-08	5.1%	i
CCN1CCCC1CN(Cc1cc2cc(OC)ccc2[nH]c1=O)C(=O)NCc1ccccc1 (stereo not given)	i	6%	5.7e-09	1.5%	i
CSCC[C@H](NC(=O)OC(C)(C)C)c1nnc(SCc2ccccc2)o1	i	?	3.2e-09	0.1%	i
CN(Cc1ccccc1)c1nc2c(c(=O)[nH]c(=O)n2C)n1CCCSc1ncccn1	i	30%	6e-09	1.8%	i
O=C1c2ccccc2C(O)(O)[C@@]1(O)[C@]1(O)C(=O)c2ccccc2C1(O)O	i	1%[11.4 µM]	1.7e-08	-1.8%[11.5 µM]	i
O=C(c1cccs1)c1coc2ccc(O)c(CN3CCOCC3)c12	i	8%	4e-08	1.5%	i
O=C(O)c1cccc(S(=O)(=O)NCCO)c1	i	10%[11.4 µM]	1.7e-08	2.0%[11.5 µM]	i
CC(=C1C(=O)c2ccccc2C1=O)N1CCc2ccccc2C1	i	-1%	1e-09	1.8%	i
CC(C)CO	/	?	/	-0.8%	/
CC1CCc2nc(NC(=O)C3CCCO3)sc2C1 (stereo not given)	i	1%	1e-09	0.1%	i
CCCn1c(C(C)NC(C)=O)nc2ccccc21 (stereo not given)	/	-3%	/	2.9%	/
O=C(c1c[nH]c2ccc(S(=O)(=O)N3CCOCC3)cc2c1=O)N1CCN(c2ccccn2)CC1	i	0%	1e-09	-1.2%	i
CCCCCn1c(CN2CCN(Cc3ccccc3)CC2)nc2c1c(=O)n(C)c(=O)n2C	i	25%	3.4e-08	1.4%	i
CCN(CC)CCNc1nc2c(c(=O)[nH]c(=O)n2C)n1CCOc1ccccc1	i	/	1e-09	/	i
COc1ccc(S(=O)(=O)N2CCC(C(=O)N3CCOCC3)CC2)cc1	/	0%	/	1.8%	/
CSc1ccccc1C(=O)N1CCOCC1	i	5%	1e-09	0.0%	i
CC(Sc1ccccc1)C(=O)Nc1ccc(S(=O)(=O)N2CCOCC2)cc1 (stereo not given)	i	-2%	4e-09	0.0%	i
CCC(=O)Nc1cc(-c2nn(C)c(=O)c3ccccc23)ccc1N1CCCCC1	i	/	2.6e-09	/	i
Cc1nc2cnc(N3CCOCC3)nc2n(C[C@H]2CCCO2)c1=O	i	4%	5.3e-09	10%	i

(further entries)
SMILES	Resorufin autofl	TSHR agonist	A647 autofl	AID923	A488 fluor
Cc1ccn2cc(-c3ccc(S(=O)(=O)N4CCOCC4)cc3)nc2c1	/	-1%	/	11%	/
Cc1c(NC(=O)CSc2ccccc2C(=O)Nc2cccnc2)c(=O)n(-c2ccccc2)n1C	i	-4%	2.8e-09	-0.6%	i
Cc1cccc(NC(=O)C(NS(=O)(=O)c2ccc3c(c2)CCC(=O)N3)c2ccccc2)n1 (stereo not given)	i	?	1e-09	-0.6%	i
CCOC(=O)C1=C(C)NC(C)=C(C(=O)OCC)C1c1cc2ccc(C)cc2[nH]c1=O	i	?	1e-09	12%	i
CN1CCN(C(c2cccc(C(F)(F)F)c2)c2nnnn2Cc2ccccc2)CC1 (stereo not given)	i	15%	1e-09	6.7%	i
CC1CN(C2CCN(C(=O)COc3ccccc3)CC2)CC(C)O1 (stereo not given)	i	/	7.5e-09	/	i

The list is partial; count on the stated rates, not on these rows.
